Screening data deposited in PubChem by National Center for Advancing Translational Sciences (NCATS).
ClpP mod: qHTS Assay for Activators of ClpP; ATP-dependent Clp protease proteolytic subunit (Bacillus subtilis (strain 168)), P80244; purified B. subtilis ClpP, FRET peptide cleavage, 20 min; Potency, µM (top dose mostly 57.5 µM), for inactives: at the highest dose activity change, negative = active; 340,000 compounds, 1.9% hits; AID 651965, 2013; active = well fitted falling curve with a large enough effect; inconclusive = small, poorly fitted or top-dose-only effect; inactive = no such curve, though single readings can be large or run the other way; note: potency is the fitted concentration of half-maximal effect; the source files actives as falling curves though it sought activators and does not explain the sign; nearly all actives have a fitted effect of over 65% in size; many hits overshoot -100%
Target sequence (P80244 whole entry, looked up): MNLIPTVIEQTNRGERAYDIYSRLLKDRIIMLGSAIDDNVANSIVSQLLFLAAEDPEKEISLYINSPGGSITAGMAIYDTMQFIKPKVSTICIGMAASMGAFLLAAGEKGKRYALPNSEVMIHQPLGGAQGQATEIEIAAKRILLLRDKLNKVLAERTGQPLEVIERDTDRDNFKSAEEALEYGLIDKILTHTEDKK
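Buffer: 100 mM Tris/HCl pH8, 100 mM KCl, 0.05% low protease BSA, 2.5% glycerol, 0.01% Tween-20. ClpP 10 microg/mL final; 20 min RT; delta FRET normalized to ADEP and DMSO controls.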
TRPML1 ag: activates the human TRPML1 channel. Q9GZU1. TRPML1-expressing cells, Ca2+ dye fluorescence, FDSS; host cell line not named in the record; reference of the full effect not given here. activation, % (concentration not given with the values). 410,000 compounds, 0.12% hits; in the data active = activation above about 50%; inconclusive = about 30% to 50%; inactive = below about 30%; note: 0% is about no effect; the text of the record puts the active cut at 80%
Target sequence (Q9GZU1 whole entry, looked up): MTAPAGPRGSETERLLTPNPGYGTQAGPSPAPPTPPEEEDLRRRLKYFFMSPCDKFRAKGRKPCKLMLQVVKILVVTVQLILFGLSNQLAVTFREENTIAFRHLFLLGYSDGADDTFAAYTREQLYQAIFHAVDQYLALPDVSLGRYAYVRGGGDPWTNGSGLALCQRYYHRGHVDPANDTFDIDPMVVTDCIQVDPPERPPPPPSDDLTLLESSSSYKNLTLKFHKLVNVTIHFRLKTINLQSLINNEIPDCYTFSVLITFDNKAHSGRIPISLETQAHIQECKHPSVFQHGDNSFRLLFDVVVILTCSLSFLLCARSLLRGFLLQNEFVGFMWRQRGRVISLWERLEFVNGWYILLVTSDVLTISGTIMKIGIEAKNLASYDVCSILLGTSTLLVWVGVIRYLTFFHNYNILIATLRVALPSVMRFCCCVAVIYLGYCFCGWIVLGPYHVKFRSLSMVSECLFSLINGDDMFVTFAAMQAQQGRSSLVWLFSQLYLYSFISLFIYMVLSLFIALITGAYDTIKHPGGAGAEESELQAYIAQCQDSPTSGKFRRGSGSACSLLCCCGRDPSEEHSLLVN
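Calcium fluorescence on an FDSS kinetic reader gave the read-out. Tet-induced TRPML1-DL cells were plated overnight, dye-loaded (Ca8 with quencher, 45-90 min, room temperature, dark), then read 110 s after compound addition, and again 110 s after 4uM final 54-4 (EC80).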
gsp ag: activates gsp, the McCune-Albright syndrome mutation. gsp mutant cells, cAMP HTRF, 30 min; control for the full effect not named in the record. Potency, µM (doses to about 76.9 µM), inactives show at the highest dose activation (cAMP increase), hits mostly activators. 340,000 compounds, 0.13% hits; active = well fitted activation curve with a large enough effect; inconclusive = small, poorly fitted or top-dose-only effect, or another doubt; inactive = no such curve, though single readings can be large or run the other way; cell line not stated here;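 note: phosphodiesterase inhibitor Ro 20-1724 added with compounds to block cAMP breakdown; potency is the fitted concentration of half-maximal effect; nearly all actives have a fitted effect of over 60% in size; about a fifth of the inactives were tested at one dose only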
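Cells stably selected in G418 were plated at 2000/well, grown 16-24 hr, then given compounds in DMSO with the PDE inhibitor […] (300 uM solution added) for 30 min at 37C; cAMP was read by HTRF.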
TRPML1 inh: inhibitors of human TRPML1 channel. TRPML1-inducible cells, Ca2+ dye fluorescence, FDSS; active compounds read low; inhibition of EC80 agonist-evoked calcium signal. 390,000 compounds, 0.02% hits. activity change, negative = inhibition, % (test concentration not listed); in the data active means activity change below about -50%; inconclusive means about -30% to -50%; inactive means above about -30%;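 note: stimulus is agonist 54-4 at its EC80 concentration; % is set by controls: 0 for no effect and ±100 for the full control effect; compound concentration not given in the record; the text of the record puts the active cut at -80%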
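TRPML1-DL cells, Tet-induced overnight (~16 h, 37 °C) at 1,500 cells/well, were loaded with Ca8 no-wash dye plus quencher for 45-90 min at room temperature. Compounds were pinned during FDSS kinetic reading; agonist 54-4 at EC80 (4 uM final) then added.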
An asterisk follows results filed as active; [ ] = remark or other dose.

Screening O=S(=O)(c1ccc(Cl)cc1)N1CCN(c2nc(-c3ccc(F)cc3)nc3cc(Cl)ccc23)CC1 returned TRPML1 ag 0.3 and TRPML1 inh 15.6.
CC(C)(C)n1ncc2c(=O)n(Cc3ccc(C#N)cc3F)cnc21 was read as TRPML1 ag 0.1 and TRPML1 inh 22.9.
Screening O=C(Nc1cccc2cccnc12)c1cccs1 returned TRPML1 ag 1.5 and TRPML1 inh -17.3.
Screening Cc1cc(C)c2c(c1)C1C=CCC1C(C(=O)O)N2 (stereo not given) returned TRPML1 ag 0.3 and TRPML1 inh 7.9.
`O=S(=O)(O)c1c(NS(=O)(=O)c2ccccc2)ccc2ccccc12` gave TRPML1 ag 1.0 and TRPML1 inh -10.8.
CC(C)(C)OC(=O)N1CCN(/[N+]([O-])=N/Oc2ccc([N+](=O)[O-])cc2[N+](=O)[O-])CC1 was read as TRPML1 ag 1.3 and TRPML1 inh -19.3.
`O=S(=O)(Nc1cccnc1)c1cccc2ccccc12` gave TRPML1 ag 1.2 and TRPML1 inh -5.8.
`CCCCCCCCCCCCCCCCOC(=O)N1CCN(/[N+]([O-])=N/Oc2ccc([N+](=O)[O-])cc2[N+](C)=O)CC1` gave TRPML1 ag 1.5 and TRPML1 inh 4.0.
CC(C)(C)n1ncc2c(=O)n(Cc3ccc(C#N)c(F)c3)cnc21 was read as TRPML1 ag 0.5 and TRPML1 inh 8.2.
Screening CCN(CC)/[N+]([O-])=N/OCOC(=O)Cc1c(C)n(C(=O)c2ccc(Cl)cc2)c2ccc(OC)cc12 returned TRPML1 ag 1.3 and TRPML1 inh 37.6.
`O=C(Nc1cccc2cccnc12)C(Cl)(Cl)Cl` gave TRPML1 ag 1.7 and TRPML1 inh -11.2.
`O=C(O)c1cc(NCc2cc(O)ccc2O)ccc1O` gave TRPML1 ag 0.2 and TRPML1 inh -16.4.
`CC(C)(C)n1ncc2c(=O)n(Cc3cccc(F)c3)cnc21` gave TRPML1 ag 0.4 and TRPML1 inh 6.3.
`COc1ccc(C(=O)N(Cc2ccco2)Cc2cccs2)cc1` gave TRPML1 ag 2.8 and TRPML1 inh -19.5.
Screening Cc1ccc(NS(=O)(=O)c2ccccc2)c(C)c1 returned TRPML1 ag 1.0 and TRPML1 inh 1.0.
`Oc1ccc(Br)cc1C1C=C(c2ccc3c(c2)OCO3)NC(c2ccc(F)c(Br)c2)N1` (stereo not given) gave TRPML1 ag 2.8 and TRPML1 inh -6.5.
`CC(C)(C)n1ncc2c(=O)n(Cc3ccc(C(F)(F)F)cc3)cnc21` gave TRPML1 ag 2.2 and TRPML1 inh 10.1.
O=C(O)c1ccc(C(=O)Nc2cccc3cccnc23)cc1 was read as TRPML1 ag 1.5 and TRPML1 inh -6.6.
Screening Cc1ccc(-c2nc(N3CCN(S(=O)(=O)c4ccc(F)cc4)CC3)c3ccc(Cl)cc3n2)cc1 returned TRPML1 ag 0.0 and TRPML1 inh -16.1.
`O=C(Nc1cccc2cccnc12)c1ccc(Br)cc1` gave TRPML1 ag 1.5 and TRPML1 inh 1.5.
`O=C(COC(=O)C12CC3CC(CC(Cl)(C3)C1)C2)NCc1ccco1` gave TRPML1 ag 1.1 and TRPML1 inh 4.7.
`COc1ccc(S(=O)(=O)Nc2cccc3cccnc23)cc1` gave TRPML1 ag 3.3 and TRPML1 inh 2.1.
For O=C(CI)Nc1cccc2cccnc12 the results were TRPML1 ag 3.8 and TRPML1 inh 0.8.
CC(C)(C)n1ncc2c(=O)n(Cc3ccccc3-c3ccccc3)cnc21 was read as TRPML1 ag 1.7 and TRPML1 inh 6.7.
`COc1cc(NS(=O)(=O)c2ccc(C(=O)O)cc2)c2nc(C)ccc2c1` gave TRPML1 ag 1.1 and TRPML1 inh 16.3.
CC(C)(C)n1ncc2c(=O)n(Cc3cccc(Cl)c3Cl)cnc21 was read as TRPML1 ag 2.0 and TRPML1 inh 4.3.
CC(C)(C)n1ncc2c(=O)n(Cc3cc(C(F)(F)F)ccc3Cl)cnc21 was read as TRPML1 ag 0.3 and TRPML1 inh 29.8.
For O=S(=O)(c1cccc(C(F)(F)F)c1)N1CCN(c2nc(-c3cccs3)nc3cc(Cl)ccc23)CC1 the results were TRPML1 ag -0.2 and TRPML1 inh 10.9.
For CC(C)(C)n1ncc2c(=O)n(Cc3ccc(Cl)c(OC(F)(F)F)c3)cnc21 the results were TRPML1 ag 5.1 and TRPML1 inh 10.0.
Screening CCN(CCN(C)Cl)/[N+]([O-])=N/Oc1ccc([N+](=O)[O-])cc1[N+](=O)[O-] returned TRPML1 ag 0.8 and TRPML1 inh -20.9.
`O=[N+]([O-])c1ccc(O/N=[N+](\[O-])N2CCCCC2)c([N+](=O)[O-])c1` gave TRPML1 ag 1.2 and TRPML1 inh 34.2.
Screening CC1(C)OC(=O)C2(Cc3c(F)cccc3N3CCCC32)C(=O)O1 (stereo not given) returned TRPML1 ag 2.5 and TRPML1 inh -3.8.
Screening Cc1ccc(S(=O)(=O)N2CCN(c3nc(-c4ccc(F)cc4)nc4cc(Cl)ccc34)CC2)cc1 returned TRPML1 ag 1.6 and TRPML1 inh 5.6.
`O=C(c1cccs1)N1C[C@@H](O)[C@H](n2cc(C3CC3)nn2)C[C@@H]1c1ccccc1` gave ClpP mod -4.0% and gsp ag -0.4%.
`COc1ccc(NC(=O)C[C@H]2C(=O)N(Cc3ccccc3)C[C@@H]2Cc2ccccc2)cc1` gave ClpP mod -3.4% and gsp ag -2.1%.
For c1ccc(COc2ncnc3c2ncn3CCCN2CCN(Cc3cccc4ccccc34)CC2)cc1 the results were ClpP mod -1.6% and gsp ag -7.3%.
Screening O=C1NC(Cc2ccc(O)cc2)c2nc3ccc(F)cc3c(=O)n2-c2ncccc21 (stereo not given) returned ClpP mod -3.9% and gsp ag -18.9%.
CCCC1NC(=O)c2cc3ccccc3cc2-n2c1nc1cc(Cl)ccc1c2=O (stereo not given) was read as ClpP mod -1.8% and gsp ag -20.0%.
Screening O=C(C[C@@H]1C[C@H]2c3cc(NC(=O)NC4CCCCC4)ccc3O[C@H]2[C@H](CO)O1)NC1CCCCC1 returned ClpP mod -2.2% and gsp ag 29.7%.
Screening CCC/C=C/c1ccc(CN2C(CC(C)C)C(=O)N(Cc3cn(CCC4OCCCO4)nn3)CCS2(=O)=O)cc1 (stereo not given) returned ClpP mod 0.8% and gsp ag -7.0%.
`CCC/C=C/c1ccc(CN2C(C(C)C)C(=O)N(Cc3cn(CCC4OCCCO4)nn3)CCS2(=O)=O)cc1` (stereo not given) gave ClpP mod -1.8% and gsp ag -51.8%[inhibitor].
Screening CC1=C(C(=O)N(C)C)CC(CC(=O)NCc2cccs2)C(=O)N1CCCN1CCCC1=O (stereo not given) returned ClpP mod 1.6% and gsp ag inconclusive.
CN(CCCn1ccc(NC(=O)OCc2ccccc2)nc1=O)Cc1ccco1 was read as ClpP mod -1.0% and gsp ag -6.0%.
Cc1ccc2c(=O)n3c(nc2c1)C(Cc1ccccc1)NC(=O)c1cc2ccccc2cc1-3 (stereo not given) was read as ClpP mod inconclusive and gsp ag -20.0%.
Screening C[C@@H]1CN([C@H](C)CO)C(=O)c2cc(Br)cnc2O[C@H]1CN(C)C(=O)CC1CC1 returned ClpP mod 0.3% and gsp ag inconclusive.
O=C(C[C@H]1C(=O)N(Cc2cccnc2)C[C@@H]1Cc1ccccc1)Nc1ccc(Br)cc1 was read as ClpP mod 1.7% and gsp ag 23.4%.
`O=C1NC(Cc2ccc(O)cc2)c2nc3cc(F)ccc3c(=O)n2-c2cc3ccccc3cc21` (stereo not given) gave ClpP mod -10.8% and gsp ag -0.6%.
Screening CN[C@H](C)C(=O)NC[C@H]1O[C@@H](n2ccc(N)nc2=O)[C@H](O)[C@@H]1O returned ClpP mod -1.3% and gsp ag 10.8%.

Taken from the entries so far (two entries):
`O=C1NC(Cc2ccc(O)cc2)c2nc3cc(F)ccc3c(=O)n2-c2cc3ccccc3cc21` (stereo not given) gave ClpP mod -10.8% and gsp ag -0.6%.
Screening CN[C@H](C)C(=O)NC[C@H]1O[C@@H](n2ccc(N)nc2=O)[C@H](O)[C@@H]1O returned ClpP mod -1.3% and gsp ag 10.8%.

The results go on.
For Cc1cccc(S(=O)(=O)N(C)C[C@@H]2OCc3cn(nn3)CCCC(=O)N([C@@H](C)CO)C[C@H]2C)c1 the results were ClpP mod -1.2% and gsp ag 21.2%.
COc1ccc(CN2C(=O)C(CC(=O)NCCc3ccccn3)CC(C(=O)N(C)C)=C2C)cc1 (stereo not given) was read as ClpP mod -3.3% and gsp ag -0.2%.
For COc1ccc([C@H]2N[C@]3(CCCN(Cc4ccccc4)C3=O)[C@H]3C(=O)N(C)C(=O)[C@@H]23)cc1 the results were ClpP mod -0.6% and gsp ag -14.8%.
CCN(CC)C(=O)C1=C(C)N(CCC2=CCCCC2)C(=O)C(CC(=O)NC(c2ccccc2)c2ccccc2)C1 (stereo not given) was read as ClpP mod 1.0% and gsp ag -17.5%.
C[C@@H]1CN([C@H](C)CO)C(=O)CCCn2nncc2CO[C@@H]1CN(C)S(=O)(=O)c1ccc(Oc2ccccc2)cc1 was read as ClpP mod -0.8% and gsp ag 13.1%.
For CCN(CC)C(=O)C1=C(C)N(Cc2ccc(C(C)(C)C)cc2)C(=O)C(CC(=O)NCCN2CCOCC2)C1 (stereo not given) the results were ClpP mod -2.6% and gsp ag -1.4%.
`COc1cc2c(cc1CNC[C@H]1O[C@@H](n3cc(C)c(=O)[nH]c3=O)C[C@@H]1O)OCO2` gave ClpP mod 1.0% and gsp ag 11.7%.
Screening COc1ccc2nc3n(c(=O)c2c1)-c1ncccc1C(=O)NC3CC(C)C (stereo not given) returned ClpP mod -3.8% and gsp ag 27.7%.
C[C@@H]1Cn2cnc(C(=O)N[C@@H](Cc3c[nH]c4ccccc34)C(=O)OC(C)(C)C)c2C(=O)N1 was read as ClpP mod -0.9% and gsp ag 17.9%.
For C[C@@H]1CN([C@@H](C)CO)C(=O)CCCn2nncc2CO[C@H]1CN(C)C(=O)Nc1ccc2c(c1)OCO2 the results were ClpP mod 1.5% and gsp ag 2.1%.
For Cc1cccc(S(=O)(=O)N(C)C[C@@H]2OCc3cnnn3CCCC(=O)N([C@H](C)CO)C[C@@H]2C)c1 the results were ClpP mod -1.0% and gsp ag inconclusive.
COc1ccc(CN2C(=O)C(CC(=O)NC3CCCC3)CC(C(=O)N(C)C)=C2C)cc1 (stereo not given) was read as ClpP mod -0.3% and gsp ag -0.8%.
CC1=C(C(=O)N(C)C)CC(CC(=O)NCCCCc2ccccc2)C(=O)N1Cc1ccc(F)cc1 (stereo not given) was read as ClpP mod 1.0% and gsp ag inconclusive.
For C[C@@H]1CN([C@@H](C)CO)C(=O)CCCn2nncc2CO[C@H]1CN(C)Cc1ccc(Cl)c(Cl)c1 the results were ClpP mod -0.9% and gsp ag -65.2%[inhibitor].
CCN(CC)C(=O)c1ncn2c1c(=O)[nH]c1ccccc12 was read as ClpP mod inconclusive and gsp ag 22.6%.
For C[C@@H]1CN([C@H](C)CO)C(=O)CCCn2nncc2CO[C@@H]1CN(C)S(=O)(=O)c1ccc2ccccc2c1 the results were ClpP mod 2.0% and gsp ag -66.9%[inhibitor].
For C[C@@H]1CCCCO[C@@H](CN(C)S(=O)(=O)c2ccc(Cl)cc2)[C@@H](C)CN([C@H](C)CO)C(=O)c2cc(N(C)C)ccc2O1 the results were ClpP mod -1.4% and gsp ag 21.7%.
Screening O=[N+]([O-])c1ccc(CN2CC(N3CCCC3)CS2(=O)=O)cc1 (stereo not given) returned ClpP mod 0.5% and gsp ag -1.3%.
For CCCCN1C(=O)C(CC(=O)NC2CCCC2)CC(C(=O)N2CCOCC2)=C1C (stereo not given) the results were ClpP mod 0.3% and gsp ag 1.1%.
Screening CCOC(=O)N(C)C[C@@H]1OCc2cnnn2CCCC(=O)N([C@H](C)CO)C[C@@H]1C returned ClpP mod 2.5% and gsp ag 13.0%.

These rows are one share of the data, so the mix of outcomes need not match the whole.
